# Source: PubChem BioAssay (SRMLSC)
# H5N1 CPE = MDCK cell protection from H5N1 avian flu; 96,000 compounds, 0.07% hits; cytopathic effect, luminescence, 72 h; active compounds read high; no value below 0 was filed and about half of the inactive calls have no number; reference of the scale not given here; inhibition, % at 50 µM; AID 740, 2007; in the data active means inhibition above about 25%
# An asterisk follows results filed as active; i = inactive. The list is partial; rates above refer to the full screens.
SMILES,H5N1 CPE
C=CCc1ccccc1OCC(O)CN1CCN(c2ccccc2F)CC1 (stereo unspecified),i
Cc1ccc(-n2c(C)cc(C)c(C#N)c2=O)cc1Cl,0.5
Cc1cc(=O)[nH]c(-n2nc(C)cc2C)n1,3.7
Nc1c(-c2ccccc2)nc(Cl)nc1-c1ccccc1,1.0
Cc1ccc(OCCSc2nnc(-c3ccncc3)n2C)cc1,2.3
COC(=O)c1cn(C)c2ccc(S(=O)(=O)N3CCCC3)cc2c1=O,0.3
COc1cccc(Nc2nc3ccccc3n3nnnc23)c1,0.5
C/C(=N\Nc1cc(Cl)nc(C)n1)c1ccccc1,1.6
Cc1cc(=O)n2nc(N3CCCC(C(=O)N4CCN(C)CC4)C3)sc2n1 (stereo unspecified),0.1
COc1ccc(Cl)c(S(=O)(=O)N2CCCC2)c1,0.8
COc1ccc(OC)c(NC(=O)c2ccccc2SC)c1,0.2
COc1ccc(C(=O)Nc2cc3c(cc2C#N)OCO3)cc1S(=O)(=O)N1CCN(C)CC1,1.6
COc1ccc(C(=O)NC2CCCCCC2)cc1S(=O)(=O)Nc1ccc(Br)cc1,0.5
COc1cccc(CN(Cc2cccnc2)S(=O)(=O)c2ccc(-n3cnnn3)c(C)c2)c1OC,1.9
COC(=O)c1ccccc1NC(=O)c1ccc(COc2ccc(C)c(C)c2)o1,0.7
Cc1cc(C(=O)NCCCn2ccnc2)sc1-c1ccccc1,i
CCOC(=O)CCC(NC(=O)c1ccc(NCN2C(=O)CCC2=O)cc1)C(=O)OCC (stereo unspecified),i
Cc1ccccc1OCC(=O)NCCC(=O)O,0.6
CCC1(C)OC(=O)N(CCCn2ccnc2C)C1(C)O (stereo unspecified),i
C[N+](C)(C)CCOC(=O)C1(c2ccccc2)CCCC1,0.6

# Structures listed so far containing sulfur (nine):
SMILES,H5N1 CPE
Cc1ccc(OCCSc2nnc(-c3ccncc3)n2C)cc1,2.3
COC(=O)c1cn(C)c2ccc(S(=O)(=O)N3CCCC3)cc2c1=O,0.3
Cc1cc(=O)n2nc(N3CCCC(C(=O)N4CCN(C)CC4)C3)sc2n1 (stereo unspecified),0.1
COc1ccc(Cl)c(S(=O)(=O)N2CCCC2)c1,0.8
COc1ccc(OC)c(NC(=O)c2ccccc2SC)c1,0.2
COc1ccc(C(=O)Nc2cc3c(cc2C#N)OCO3)cc1S(=O)(=O)N1CCN(C)CC1,1.6
COc1ccc(C(=O)NC2CCCCCC2)cc1S(=O)(=O)Nc1ccc(Br)cc1,0.5
COc1cccc(CN(Cc2cccnc2)S(=O)(=O)c2ccc(-n3cnnn3)c(C)c2)c1OC,1.9
Cc1cc(C(=O)NCCCn2ccnc2)sc1-c1ccccc1,i

# Additional results follow.
SMILES,H5N1 CPE
CCCCn1nc2cc(C(=O)NCCc3ccc(C)cc3)ccc2c1OCC,2.9
COc1ccc(NC(=O)CSc2ncnc3c2cnn3Cc2ccccc2)cc1OC,i
CC(C#N)Sc1ncnc2sc3c(c12)CCC3 (stereo unspecified),i
COc1ccc(NC(=S)N2CCN(C/C=C/c3ccccc3)CC2)cc1OC,0.7
Cc1ccc2cc(C(c3nnnn3C3CCCC3)N(Cc3ccccc3)Cc3ccco3)c(=O)[nH]c2c1 (stereo unspecified),i
O=C(O)CSc1nc(-c2ccccc2)nc2c1oc1ccccc12,i
Cc1nnc(C)n1/N=C/c1ccc(-c2ccccc2)cc1,i
Cc1ccc(C2NNC(=O)C2NC(=O)c2ccccc2)cc1 (stereo unspecified),0.2
CN1CCN(c2ccccc2NC(=O)c2cc3ccccc3o2)CC1,0.6
COc1ccc(CCn2c(=S)[nH]c3cc(C(=O)NCc4ccco4)ccc3c2=O)cc1OC,0.1
COc1cc(OC)c(C(=O)Oc2ccc3c(c2)OCO3)cc1OC,i
O=C(COC(=O)c1cnccn1)Nc1ccc2c(c1)OCO2,0.8
CCc1nnc(NC(=O)CSc2ncc(-c3ccccc3)[nH]2)s1,0.0
O=C(Nc1cccnc1)C1CCCN1S(=O)(=O)c1ccc(Cl)c(Cl)c1 (stereo unspecified),1.3
CCOC(=O)c1nnn(-c2nonc2-n2cccc2)c1CN1CCCCC1,3.3
CC1(C)CC(=O)C(=CN2CCN(C(=O)c3ccco3)CC2)C(=O)C1,0.5
O=C(O)CCC(=O)N1CCOc2ccc(Cl)cc21,i
COc1ccc(C(CC(=O)NCCN2CCOCC2)NS(=O)(=O)c2ccc(C)cc2)cc1 (stereo unspecified),0.5
O=C(c1cccs1)N1CCC(c2nc3ccccc3s2)CC1,1.6
CCn1c(=O)cc(SCC(=O)NCC2CCCO2)c2ccccc21 (stereo unspecified),0.4

# Quoted at random: eight compounds from above
SMILES,H5N1 CPE
CCCCn1nc2cc(C(=O)NCCc3ccc(C)cc3)ccc2c1OCC,2.9
Cc1ccc2cc(C(c3nnnn3C3CCCC3)N(Cc3ccccc3)Cc3ccco3)c(=O)[nH]c2c1 (stereo unspecified),i
COc1cc(OC)c(C(=O)Oc2ccc3c(c2)OCO3)cc1OC,i
O=C(O)CCC(=O)N1CCOc2ccc(Cl)cc21,i
CCn1c(=O)cc(SCC(=O)NCC2CCCO2)c2ccccc21 (stereo unspecified),0.4
CC(C#N)Sc1ncnc2sc3c(c12)CCC3 (stereo unspecified),i
COc1ccc(NC(=S)N2CCN(C/C=C/c3ccccc3)CC2)cc1OC,0.7
Cc1ccc(C2NNC(=O)C2NC(=O)c2ccccc2)cc1 (stereo unspecified),0.2

# (next part)
SMILES,H5N1 CPE
O=C(CCCc1nc(-c2ccccc2)no1)NCc1cccnc1,0.7
O=[N+]([O-])c1ccc(NNC(=S)Nc2ccccc2)cc1,1.2
O=C(O)CCc1ccc(-c2ccc(Cl)cc2)n1CCC(=O)O,i
Cc1cc(Cl)cc(C)c1OCC(=O)O,i
Cc1cc(C)n(CC(O)CN2C(=O)NC(C)(C)C2=O)n1 (stereo unspecified),i
Cc1ccc(NC(=O)c2cc(-c3ccc(C)o3)nc3ccccc23)nc1,0.4
COC(=O)Cc1c(O)ccn(Cc2ccccc2OC)c1=O,1.5
CCCCCn1c(N2CCN(Cc3ccccc3)CC2)nc2c1c(=O)[nH]c(=O)n2C,0.3
Clc1ccc(CN2C3=NCCN3c3ccccc32)cc1Cl,i
CC1=C(C(=O)OC(C)C)C(c2ccco2)NC(=O)N1 (stereo unspecified),i
O=C1CCc2cc(S(=O)(=O)NCCC(=O)NC3CCN(Cc4ccccc4)CC3)ccc2N1,i
O=C(Cc1ccccc1)OC(COCc1ccccc1)CN1CCOCC1 (stereo unspecified),0.3
Cn1c(=O)c2cc(S(=O)(=O)NCCC(=O)N3CC=C(c4ccccc4)CC3)ccc2n(C)c1=O,2.8
CC(=O)N1SC(N)=NC1c1ccccc1 (stereo unspecified),0.2
O=C(CSc1nnc(-c2ccccn2)n1Cc1ccco1)c1ccccc1,i
COc1cc(OC)cc(OCC(O)Cn2cnc(-c3ccccc3)c2)c1 (stereo unspecified),i
CCCc1nnc2n1N=C(c1ccc(OC)c(OC)c1)CS2,1.2
COc1ccc(CCNc2nc(N3CCCCC3)nc(N3CCCCC3)n2)cc1OC,i
CCOC(=O)C1CCN(C(=O)c2ccc(Br)o2)CC1,0.7
Cc1ccc(-n2c(O)c(C=NC3CCCCC3N)c(=O)[nH]c2=O)cc1C (stereo unspecified),i
CCc1ccc(CC)c(S(=O)(=O)Nc2ccc(C(=O)O)c(O)c2)c1,0.2
Cc1nc2ccccc2nc1OCC(=O)NCc1ccc2c(c1)OCO2,0.8
CCC(CC)C(=O)Nc1cccc(/C(C)=N/NC(=O)c2c(Br)cnn2C)c1,i
Cc1ccc2c(C)c(C(=O)Nc3cccnc3)oc2c1,90.2*
COc1ccc(C(=O)NCC(=O)NCC2COc3ccccc3O2)cc1 (stereo unspecified),1.5
O=C(COC(=O)c1ccccn1)NC1CCCCC1,1.2
CN(c1ccccc1)S(=O)(=O)c1cccc(NC(=O)Cn2cnc3ccccc3c2=O)c1,6.2
O=C(c1ccccc1Nc1ccc(SC(F)F)cc1)N1CCCCC1,0.6
COc1cccc(-n2nnc3c(=O)n(C/C=C/c4ccccc4)cnc32)c1,0.3
O=C(CSc1nnc(COc2ccc(Cl)cc2)n1Cc1ccco1)c1ccccc1F,0.4
CCn1nnc(NC(=O)COc2cc(C)ccc2C(C)C)n1,0.4
COc1ccc(C(=O)NN(C)c2nc(-c3ccccc3)nnc2C(F)(F)F)cc1,i
Cc1ccc(C(=O)NC(=S)Nc2cccc3c(C)cc(C)nc23)cc1,i
O=C1/C(=C\c2ccccc2)CCc2c1[nH]c1ccccc21,i
COc1ccc(/C=C(\C#N)C(=O)NCC2CCCO2)cc1OC (stereo unspecified),i
Cc1ccnc(SCc2nc3ccccc3s2)n1,0.8
O=C(/C=C(\O)c1ccc(Cl)cc1)C(=O)NNC(=O)C(O)(c1ccccc1)c1ccccc1,i
O=C(CN1CCOCC1)Nc1ncc(Cc2cccc3ccccc23)s1,1.7
CCOC(=O)c1c(-c2ccccc2)nc2ccc(C)cn12,0.5
CC(C)c1ccc2oc(-c3cc(N)ccc3O)nc2c1,i
O=C(CSc1nnc2ccccn12)Nc1ccccc1C(=O)NC1CC1,1.3
COCCn1c(C)cc(C2=NNC(=Nc3ccccc3)SC2)c1C,i
CCn1c(=O)cc(OCC(=O)N2CCN(C(=O)c3ccco3)CC2)c2ccccc21,1.7
C=CCn1c(CCC(=O)O)ccc1-c1ccccc1,0.1
O=C(CN1C(=O)c2cccc3cccc1c23)NCc1ccncc1,0.6
CN(C)S(=O)(=O)c1ccc2nc(NC(=O)c3cccnc3)sc2c1,3.0
CC(=O)Nc1ccc(OC(=O)N2CCCCC2)cc1,i
Cc1ccc(C(NC(N)=O)c2ccccc2)cc1 (stereo unspecified),i
COCCn1c(C)c(C(=O)O)sc1=S,0.3
O=[N+]([O-])/C(C(Cl)=C(Cl)Cl)=C(\Nc1ccc(F)cc1)n1cncn1,i
CN(C)C1=C(C#N)C(c2ccccc2)=NP(N(C)C)(N(C)C)=N1,0.4
CCc1cc(=O)oc2cc(OCc3nn[nH]n3)ccc12,0.6
O=C(CC(NS(=O)(=O)c1ccc(Cl)cc1)c1ccco1)NCc1ccco1 (stereo unspecified),i
COc1cc(COCC(O)CN2CCOCC2)cc(OC)c1OC (stereo unspecified),0.9
CCOC(=O)C1=C(C)NC(C)=C(C(=O)OCC)C1c1cc(N)ccc1OC(F)F,i
O=C(NCCCN1CCCCC1)c1ccc2c(=O)n(CCc3ccccc3)c(=O)[nH]c2c1,i
Cc1onc(-c2ccccc2Cl)c1C(=O)N1CCN(c2ccccc2)CC1,2.6
CC(=O)Nc1cc(-c2nn(C)c(=O)c3ccccc23)ccc1N1CCCCC1,i
CCOC(=O)Cc1csc(NC(=O)c2ccc(Br)o2)n1,i
CCCCOc1ccc(-c2nnn(C(C)C(=O)OCC)n2)cc1 (stereo unspecified),0.7

# The results go on.
SMILES,H5N1 CPE
O=C(Nc1ccccc1)N1CC=C(c2ccc(F)cc2)CC1,i
Cc1ccc(-c2nc3cc(N)ccc3o2)cc1,i
O=C(CC1(O)C(=O)N(Cc2cccc3ccccc23)c2ccccc21)c1cccnc1 (stereo unspecified),0.6
COc1cc(NC(=O)CN(C)S(=O)(=O)c2ccc3c(c2)CCC(=O)N3)cc(OC)c1,1.4
COc1ccc(N2CCN(C(=O)c3cc4c(-c5ccc(Cl)cc5)nn(C)c4s3)CC2)cc1,i
O=C(O)C1CCCN1C(=O)OCc1ccccc1 (stereo unspecified),i
Cc1ccc(S(=O)(=O)n2nc(OC(=O)C3CCCCC3)cc2N)cc1,i
CCCc1cc(C(=O)NC2CCCC2)no1,i
CCOC(=O)CCc1c(C)nc2c(c(C)nn2C(C)(C)C)c1C,0.7
O=C(OCn1nnc2ccccc2c1=O)c1cccnc1,0.5
Cc1ccc2nc(NC(=O)C(NS(=O)(=O)c3cccc4nsnc34)C(C)C)sc2c1 (stereo unspecified),i
CCn1c(SCC(=O)O)nc2sc3c(c2c1=O)CCC3,0.1
Cc1c(NC(=O)C2(C)CCCCC2)c(=O)n(-c2ccccc2)n1C,i
Nc1ccc(S(=O)(=O)N2CCCc3ccccc32)cc1,1.9
Cc1c(N2C(=O)CS/C2=N\N=C\c2ccc(Cl)cc2)c(=O)n(-c2ccccc2)n1C,0.2
O=C(NC(c1ccccc1)c1ccccc1)N1CCN(CCO)CC1,i
CC1CCC(C(C)C)C(OCC(O)CN2CCOCC2)C1 (stereo unspecified),i
COC(=O)C1=C(C)OC(N)=C(C#N)C1c1cc(OC)ccc1OC (stereo unspecified),i
COC(=O)C1=C(C)Nc2ncnn2C1c1ccc(OCc2ccccc2)cc1 (stereo unspecified),0.1
COc1ccc(CC(=O)Nc2ccc(-c3cn4ccccc4n3)cc2)cc1,i
Cc1nc(SCC(C)C)[nH]c(=O)c1Cc1ccccc1,i
CN(C(=O)c1ccccn1)C1(C(=O)NC2CCCCC2)CCCCC1,i
O=S(=O)(c1ccccc1Cl)N1CCCC1c1nc(-c2cccc(Cl)c2)no1 (stereo unspecified),0.1
CC(C)c1nc(SCc2ccccn2)c2c(=O)n(C)c(=O)n(C)c2n1,3.7
O=C(Cc1cn2ccsc2n1)OCc1ccccc1,4.4
COC(=O)COc1ccc(S(=O)(=O)N2CCOCC2)cc1,i
COc1cccc2c(C)c(C(=O)O)[nH]c12,i
N#Cc1nc(-c2ccccc2)oc1NCCN1CCCCC1,0.5
COc1ccc(NS(=O)(=O)c2ccc(O)c(C(=O)OCC(=O)N3CC(C)OC(C)C3)c2)cc1 (stereo unspecified),1.4
Nc1cccc(C(=O)Nc2ccco2)c1,i
CCN1CCN(CCC(=O)Nc2cccc(OC)c2)CC1,i
Cc1noc(C)c1C(=O)NC(C)c1ccc2c(c1)OCO2 (stereo unspecified),2.0
CSc1cccc(NC(=O)CSc2ccccc2)c1,i
COc1cccc(C(=O)NC2CCN(CC(=O)NCc3ccccc3OC)CC2)c1,i
Cc1cc(C)cc(NC(=O)CSc2nnc(-c3ccccc3Br)o2)c1,i
CCOC(=O)c1cnc2ccc(C(=O)OC)cc2c1NCc1ccco1,2.7
COc1cc(C=O)ccc1OCc1c(C)noc1C,i
C=C(C)COc1ccc(-c2n[nH]c(C)c2-c2ccccc2)c(O)c1,i
CCOC(=O)c1cnc(SCC(=O)Nc2nnc(CC)s2)nc1N,0.6
